Compound activity deposited in PubChem BioAssay by National Center for Advancing Translational Sciences (NCATS).
TRPML1 blocker: human mucolipin-1 channel inhibition; Q9GZU1; TRPML1-inducible cells, Ca2+ dye fluorescence, FDSS; active compounds read low; inhibition of EC80 agonist-evoked calcium signal; activity change, negative = inhibition, % (concentration not given with the values); 390,000 tested, 0.02% active; AID 624415; in the data active means activity change below about -50%; inconclusive means about -30% to -50%; inactive means above about -30%;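 note: stimulus is agonist 54-4 at its EC80 concentration; % is set by controls: 0 for no effect and ±100 for the full control effect; the text of the record puts the active cut at -80%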
Target sequence (Q9GZU1 whole entry, looked up): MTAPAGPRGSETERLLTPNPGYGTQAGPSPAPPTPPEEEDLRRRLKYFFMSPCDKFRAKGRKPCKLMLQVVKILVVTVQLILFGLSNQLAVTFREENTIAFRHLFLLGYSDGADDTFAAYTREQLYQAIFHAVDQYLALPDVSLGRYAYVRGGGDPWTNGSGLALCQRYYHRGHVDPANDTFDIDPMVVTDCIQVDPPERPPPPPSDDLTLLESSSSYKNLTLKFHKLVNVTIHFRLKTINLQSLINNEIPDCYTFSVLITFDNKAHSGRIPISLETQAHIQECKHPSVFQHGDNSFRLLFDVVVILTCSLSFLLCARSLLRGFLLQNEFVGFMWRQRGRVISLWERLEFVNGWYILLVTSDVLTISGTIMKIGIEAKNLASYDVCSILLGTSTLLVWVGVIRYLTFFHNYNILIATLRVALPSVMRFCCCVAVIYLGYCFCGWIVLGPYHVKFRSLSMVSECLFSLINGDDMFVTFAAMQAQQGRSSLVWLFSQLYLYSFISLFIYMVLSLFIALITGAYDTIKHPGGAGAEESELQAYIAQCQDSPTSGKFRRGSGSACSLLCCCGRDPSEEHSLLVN
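TRPML1-DL cells, Tet-induced overnight (~16 h, 37 °C) at 1,500 cells/well, were loaded with Ca8 no-wash dye plus quencher for 45-90 min at room temperature. Compounds were pinned during FDSS kinetic reading; agonist 54-4 at EC80 (4 uM final) then added.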
D2 ag: agonists of human D2 dopamine receptor (beta-arrestin) | P14416 | DiscoveRx PathHunter D2 beta-arrestin, luminescence, 90 min; 100% = 57 uM dopamine signal | activation, % (test concentration not listed) | 360,000 tested, 0.084% active | AID 624465; in the data active = activation above about 40%; inconclusive = about 15% to 40%; inactive = below about 15%; note: compound concentration not given in the record; the text of the record calls up to 30% inactive
Target sequence (P14416 whole entry, looked up): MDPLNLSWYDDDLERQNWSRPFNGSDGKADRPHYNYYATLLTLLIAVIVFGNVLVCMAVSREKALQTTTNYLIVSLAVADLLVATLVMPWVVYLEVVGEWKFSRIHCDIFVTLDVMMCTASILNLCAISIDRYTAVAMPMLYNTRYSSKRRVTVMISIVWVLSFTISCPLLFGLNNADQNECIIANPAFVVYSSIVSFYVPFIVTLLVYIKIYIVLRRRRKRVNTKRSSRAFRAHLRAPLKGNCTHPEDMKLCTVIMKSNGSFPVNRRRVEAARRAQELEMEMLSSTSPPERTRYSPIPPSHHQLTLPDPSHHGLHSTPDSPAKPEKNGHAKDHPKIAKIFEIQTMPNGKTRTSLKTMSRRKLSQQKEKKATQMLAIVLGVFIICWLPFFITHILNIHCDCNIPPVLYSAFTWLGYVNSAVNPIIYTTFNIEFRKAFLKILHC
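DiscoveRx PathHunter D2 beta-arrestin cells (2,100/well) attached overnight, then compound-stimulated 90 min at 37 C in HBSS/10 mM HEPES/0.1% Tween-20 buffer; beta-galactosidase complementation read by luminescence after 1 h at ambient temperature. Dopamine 57 uM final (EC100) as control.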
CtBP-E1A blk: CtBP/E1A binding inhibition | activity change, % (no concentration beside the values) | 340,000 tested, 0.49% active | AlphaScreen GST-E1A/His-CtBP binding, 1536-well; active compounds read low; control for the full effect not named in the record; in the data active means activity change below about -65%; inconclusive means about -30% to -65%; inactive means above about -30%; note: % is set by controls: 0 for no effect and ±100 for the full control effect
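In 5 uL wells, 23 nL compound meets equimolar GST-E1A and His-CtBP (5X stock 125 nM each) for 2 h, 37 °C. Beads (5X, 50 ug/mL) then 1 h, 37 °C, dark.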
PINK1 modulator: PINK1 expression modulation; PINK1 immunofluorescence, high-content cytometry, 24 h; 410,000 tested, 0.2% active; Potency, µM (titrated, usually from 76.6 µM), without a hit: at the highest dose activation (PINK1 increase), actives largely listed as activators; AID 624263; active = well fitted activation curve with a large enough effect; inconclusive = small, poorly fitted or top-dose-only effect; inactive = flat fitted curve, though single readings scatter; cell line not stated here;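 note: potency is the fitted concentration of half-maximal effect; % of control where 0% means no effect; nearly all actives have a fitted effect of over 65% in size; a mitochondrial uncoupler was the plate control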
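PINK1 protein, normally rapidly degraded, was detected by immunofluorescence after 24 hour compound treatment of a stable cell line. Titration data (5 concentrations) came from laser-scanning cytometry, with CCCP-treated wells as controls.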
Six1-Eya2 inh: inhibitors of human Six1/Eya2 interaction | AID 651725 | activity change, % (test concentration not listed) | Q15475+O00167 | 360,000 tested, 0.56% active | AlphaScreen GST-Six1/His-Eya2 binding, biochemical; active compounds read low; control for the full effect not named in the record; in the data active = activity change below about -65%; inconclusive = about -30% to -65%; inactive = above about -30%; note: % is set by controls: 0 for no effect and ±100 for the full control effect
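AlphaScreen with GST-Six1 and His-Eya2 (5X mix: 250 nM and 500 nM), glutathione donor and nickel acceptor beads; buffer 50 mM Tris pH 8.0, 300 mM NaCl, 1 mM TCEP; 1 h at 37 C in the dark.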
TRPML1 ag: human mucolipin-1 channel agonism. TRPML1-expressing cells, Ca2+ dye fluorescence, FDSS; host cell line not named in the record; reference of the full effect not given here. 410,000 tested, 0.12% active. Q9GZU1. activation, % (test concentration not listed); in the data active = activation above about 50%; inconclusive = about 30% to 50%; inactive = below about 30%; note: 0% is about no effect; the text of the record puts the active cut at 80%
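In this qHTS format, compounds were pin-transferred onto Ca8-dye-loaded TRPML1-DL cells induced with Tet overnight, and intracellular Ca2+ fluorescence was recorded kinetically for 110 s after a 10 s baseline. A subsequent 4uM final 54-4 (EC80) addition followed by a second 110 s read served as the antagonist phase.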
* = called active by the depositor; u = inconclusive; x = not tested or not shown; & = joins results of further samples; [ ] = remark or other dose. Hits appear at their usual frequency; about 1% have a hit in one of these screens.

SMILES	TRPML1 blocker	D2 ag	CtBP-E1A blk	PINK1 modulator	Six1-Eya2 inh	TRPML1 ag
COc1ccc(N2C(S)=C(C#N)C(=O)NC23CCCCC3)cc1	42	-8.7	-14	0.6%	24	-0.4
Cc1[nH]c2ccccc2c1C1C(c2ccccc2)=NN=C(C(C)C)N1O (centres undefined)	3	0.9	2	4.5%	-2	3.5
Cc1ccc(Nc2nc3ccccc3c3nncn23)c(Cl)c1	-6	x	x	1.7%	x	-0.4
CC(C)n1nc(C(=O)OCn2nnc3ccccc3c2=O)c2ccccc2c1=O	-8	-2.0	4	3.1%	-10	-0.8
O=C(c1ccccc1[N+](=O)[O-])N1CCCC(C(=O)N2CCCCCC2)C1 (centres undefined)	-4	0.4	7	0.4%	-2	-0.1
Cc1ccc(NC(=O)c2cccc(C(F)(F)F)c2)cc1NC(=O)c1[nH]cnc1C(N)=O	-1	0.0	x	1.0%	-9	0.0
Cc1cc(C)cc(-n2ccn(CC(=O)c3ccc(F)cc3)c(=O)c2=O)c1	-14	x	x	1.8%	x	0.1
OCCN1CCOCCOc2ccccc2OCCOCC1	x	-3.7	x	-0.6%	9	x
COc1cc2c(cc1OC)C(C(=O)N(C)Cc1ccccc1)C(c1cccnc1)N(C)C2=O (centres undefined)	-14	4.0	-14	0.9%	0	0.5
Cc1cccc(C(=O)NNC(=O)CCC(=O)Nc2cccc(Cl)c2C)c1	-6	-3.6	-1	0.1%	-2	5.1
CC(=O)OCCN(Cc1ccccc1)Cc1ccc2c(c1)OCO2	2	-4.0	12	-0.3%[38.3 µM]	12	3.3
CC(C)(C)OC(=O)C(Cc1ccc(OC(C)(C)C)cc1)NC(=O)CNC(=O)CNC(=O)OCc1ccccc1 (centres undefined)	-8	-4.5	0	0.3%	5	0.3
CCCCNC(=O)c1ccc2c(c1)N(CC)C(=O)c1ccccc1S2(=O)=O	-3	-0.9	6	-0.3%	0	-0.2
CCN(c1ncnc2c1cnn2-c1cccc(Cl)c1)C1CCCCC1	50	x	x	2.9%	x	1.5
O=C(NCc1cccnc1)/C(=N\O)c1ccccc1	-16	-1.5	3	-2.1%	5	0.4
CCOc1cc(C(=O)Nc2ccc(NC(C)=O)cc2)ccc1OCC(=O)N1CCCCC1	-12	1.0	0	0.0%	-4	-0.1
COc1ccc(C(C)(C)C)cc1NC(=O)COC(=O)c1cc(SC)ccc1Cl	-15	-3.5	-14	0.6%	10	0.5
COc1ccc(N2C(=O)CS/C2=C\[N+](=O)[O-])cc1	14	-6.0	-18	0.7%	-1	0.8
CN1CCN(C(=O)c2ccc(C(C)(C)C)cc2)CC1	16	-3.8	8	0.7%[38.3 µM]	5	1.5
O=C(/C=C/c1ccc2c(c1)OCCCO2)c1ccc2ccccc2c1O	2	-0.7	-4	-0.5%	-16	1.4
CCCCCc1c(C)nc(N2CCc3ccccc32)[nH]c1=O	-10	-0.1	-1	2.3%	-3	0.7
Cc1cccc(C(=O)NCc2nnc3c4ccccc4c(-c4ccccc4)nn23)c1	8	-5.9	3	0.2%	-6	-0.2
CN(C)CCCN(C(=O)C1COc2ccccc2O1)c1nc2cc3c(cc2s1)OCO3 (centres undefined)	-1	0.9	-4	2.5%	-6	-0.5
COc1ccc(S(=O)(=O)N2C[C@H]3CON(C)[C@H]3C[C@H]2c2ccc(-c3cc4ccccc4o3)cc2)cc1	36	-1.5	-10	0.5%	-17	-0.3
CCCc1c(C(=O)OCC)sc(N)c1C#N	-9	-1.2	-23	-0.9%	-3	3.3

Later entries:
SMILES	TRPML1 blocker	D2 ag	CtBP-E1A blk	PINK1 modulator	Six1-Eya2 inh	TRPML1 ag
CC(=O)CCc1c(C)[nH]c2ccccc2c1=O	6	-3.0	2	8.8%[38.3 µM]	1	1.8
COc1ccccc1NC(=O)C1CCN(c2ncccn2)CC1	-10	-2.1	4	2.3%	2	0.0
N#CCc1ccc(NC(=O)/C=C/c2ccc([N+](=O)[O-])o2)cc1	13	14	-2	22%	-20	-0.2
CC1CCCC(C)N1/N=C/c1ccccc1C(=O)O (centres undefined)	u	-6.9	4	-1.1%	18	-0.4
COc1cccc(NC(=S)NCc2cccs2)c1	-14	-1.9	1	-1.6%	24	1.6
CC(Nc1nc(N2CCN(S(C)(=O)=O)CC2)nc2ccccc12)c1ccccc1 (centres undefined)	4	-3.5	-3	-1.6%	-2	-0.8
CC(/C=C1\N=C(SCc2ccccc2Cl)SC1=O)=C\c1ccccc1	-14	-1.8	-5	-2.8%	-5	0.5
CCCOc1ccc(C(=O)Nc2sc3c(c2C(=O)OCC)CCCCC3)cc1	-3	x	x	-1.2%	x	-0.5
COc1ccc(-c2noc(CCC(=O)N3CCN(c4ccc(Br)cc4)CC3)n2)cc1	10	-1.3	6	1.3%	1	-0.5
COc1ccc2c(c1)c1nc3n(c(=O)c1n2CC(=O)Nc1ccccc1)CCCS3	-1	-3.0	x	1.6%	3	-0.5
CC(C)c1ccc(NC(=O)C2Cc3c(-c4ccc(Cl)cc4)ccnc3O2)cc1 (centres undefined)	42	3.0	0	1.2%	0	0.6
Cc1cc(NC(=O)C2CCCN2C(=O)Nc2cccc(Cl)c2)ccc1-n1cnnn1 (centres undefined)	0	-4.1	-2	0.5%	-1	-0.4
CSCCC(NC(=O)COc1ccccc1)C(=O)NC1CCC(C)CC1 (centres undefined)	13	-2.9	8	-3.5%	-5	-0.7
Cc1cc(C)c(C(=O)Nc2cccc(F)c2)c(Cl)n1	4	1.8	x	1.3%	0	-0.3
CN1CCCN(C(=O)c2ccc(Cl)s2)CC1	-8	-3.0	-1	0.2%	2	-0.1
CC(=O)N1Cc2cc(C(=O)NCc3cccc(F)c3)nc(-c3cccc(C4=CCCC4)c3)c2[C@H]1CCO	x	x	-8	1.0%	-16	0.0
Cc1cc(=O)oc2cc(OC(=O)c3ccccc3)ccc12	x	-5.4	4	2.4%	3	x
Cc1ccc2cc(CN(Cc3nnnn3C3CCCCC3)CC3CCCO3)c(=O)[nH]c2c1 (centres undefined)	-16	2.2	1	2.4%[38.3 µM]	-2	0.2
Cc1nc2cc(C(=O)NCc3ccc4c(c3)OCO4)ccc2n1-c1ccc(Br)cc1	11	-0.8	-3	-2.7%	-15	-0.4
COc1ccc(N(CC(=O)NCCc2ccc(Cl)cc2)S(=O)(=O)c2c(C)[nH]c(=O)[nH]c2=O)cc1	17	-1.8	-1	-0.9%	7	0.9
Cc1onc(-c2ccccc2)c1-c1nnc(CN2CCN(S(=O)(=O)c3ccccc3)CC2)o1	-18	0.5	-4	-0.2%	4	0.8
Cc1ccc(C(=O)NCCc2nnc3c(C(F)(F)F)cc(Cl)cn23)o1	-1	0.1	1	1.1%	-1	0.1
CCCc1nc2nc(C)c(NS(=O)(=O)c3ccc(CC(C)C)cc3)c(=O)n2[nH]1	11&3	6.1	-21	-3.0%&-1.8%	1	2.1&0.5
O=C1C2C3C=CC(C3)C2C(=O)N1/N=C/c1cc(Br)cc([N+](=O)[O-])c1O (centres undefined)	-3	-13	-3	u	-13	-0.4
CCCCC(=O)NCCc1cc2c(OC)ccc(OC)c2[nH]c1=O	10	-0.8	2	1.3%	6	0.5

Entries from the list above that contain a thiophene ring, fused or not (4):
SMILES	TRPML1 blocker	D2 ag	CtBP-E1A blk	PINK1 modulator	Six1-Eya2 inh	TRPML1 ag
CCCc1c(C(=O)OCC)sc(N)c1C#N	-9	-1.2	-23	-0.9%	-3	3.3
COc1cccc(NC(=S)NCc2cccs2)c1	-14	-1.9	1	-1.6%	24	1.6
CCCOc1ccc(C(=O)Nc2sc3c(c2C(=O)OCC)CCCCC3)cc1	-3	x	x	-1.2%	x	-0.5
CN1CCCN(C(=O)c2ccc(Cl)s2)CC1	-8	-3.0	-1	0.2%	2	-0.1

Further results:
SMILES	TRPML1 blocker	D2 ag	CtBP-E1A blk	PINK1 modulator	Six1-Eya2 inh	TRPML1 ag
Cc1cc(C)cc(NC(=O)COC(=O)CCCC2=NS(=O)(=O)c3ccccc3N2)c1	0	-4.4	-10	-0.3%	-15	0.4
O=C(C1CCC1)N1CCc2cc(S(=O)(=O)NC3CCCc4ccccc43)ccc21 (centres undefined)	62	-2.0	11	0.1%[38.3 µM]	2	0.2
Cc1ccc(-n2c(=O)c3c4c(sc3n(Cc3cc(=O)n5cc(Cl)ccc5n3)c2=O)CCC4)cc1C	9	x	x	0.3%	x	-0.4
COc1ccc(CCn2c(C3CCCCC3)nc3c(c(=O)c4ccccc4n3C)c2=O)cc1OC	-4	0.1	-14	1.2%	-5	1.5
COc1ccc(/C=C(\NC(=O)c2cccs2)C(=O)Nc2ccc(C)cc2)cc1OC	-5	0.0	0	u	-15	-0.3
C[C@@H]1CN([C@H](C)CO)C(=O)CCCn2cc(nn2)CO[C@H]1CN(C)S(=O)(=O)c1cccc(F)c1	x	-3.0	-6	1.6%	4	x
COc1cc(OC)c2c(c1)O/C(=C\c1ccccc1)C2=O	6	0.4	x	1.6%	10	3.4
Cc1ccc(C)c(OCc2ccc(C(=O)N3N=C(C(F)F)CC3(O)C(F)F)o2)c1 (centres undefined)	1	-2.6	-14	6.9%	1	1.5
CN1c2ccccc2-c2ccccc2S1(=O)=O	-7	2.4	1	0.7%	0	-1.1&-0.8
CCOc1ccc(NC(=O)CSc2nnc(NC(=O)Nc3ccccc3)s2)cc1	22	x	x	1.8%	x	2.9
O=C(Nc1ccc2nc(C(F)(F)F)[nH]c2c1)[C@@H]1O[C@H](CO)[C@@H](O)[C@H]1O	x	-6.6	-7	-0.2%	11	0.2
COc1cc(C(=O)NCc2ccc(-c3nc4ccccc4o3)cc2)cc(OC)c1OC	-7	-0.8	5	6.4%	10	-0.7
Cn1ccc2c(-c3ccc4c(c3)OCCO4)cc3c(c21)C1CCC3C1 (centres undefined)	x	4.1	-25	1.4%	-25	0.3
COC(=O)[C@H](NCc1ccc(OC)c(B(O)O)c1)C(C)C	7	-0.8	1	-0.4%	1	-0.7
CCOc1ccc(NC(=O)Cn2c(=O)oc3cc(S(=O)(=O)NC4CCCC4)ccc32)cc1	32	x	x	-1.2%	x	-0.3
CCN1/C(=C2/SC(=S)N(NC(C)=O)C2=O)Sc2ccccc21	6	-1.7	x	22µM*	9	-0.1
COc1cc(CNn2cn[nH]c2=S)cc(Br)c1OCc1ccccc1F	-2	-6.5	-2	1.5%	u	0.1
COc1ccccc1-c1cnc(C(O)c2ccccc2)[nH]1 (centres undefined)	x	-5.2	0	-0.3%	-18	-0.7
CCCN(C(=O)Cc1c(C(=O)O)[nH]c2ccc(Cl)cc12)c1ccc(OCC)cc1	-11	x	x	-1.0%	x	-0.8
CCN(CC)C(=O)Cn1cc(SCC(=O)NCc2ccco2)c2ccccc21	7	0.1	2	1.4%	-2	0.3
Cc1ncsc1CCOC(=O)C1C2CC3CC(C2)CC1C3 (centres undefined)	14	-0.1	7	4.7%	11	-0.5
